From PubChem
fixLJ activator: activators of Burkholderia fixLJ two-component system, primary screen, B. multivorans, GFP reporter; B. multivorans fixK-promoter GFP reporter, 18 h; hits give high values; z-score (no concentration beside the values); 0.3% of 29,000 active; AID 1918990, 2023;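 active means replicate mean overnight rise in green fluorescent reporter signal, 3 or more SD over negative controls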;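 further: score is relative to vehicle wells of the plate; 300 nL library stock went into each well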
An asterisk follows results filed as active; & = joins results of further samples. A portion of the library; count on the stated rates, not on these rows.

Structure | fixLJ activator
CCn1cc(C(=O)NCc2ccccc2Cl)c(=O)c2cc(S(=O)(=O)N3CCc4ccccc4C3)ccc21 | 0.65
Cc1ccc2c(c1)C(=O)C(=O)N2Cc1ccc(OCCC(C)C)cc1 | 1.2
O=C(NCc1ccc2[nH]c(=O)[nH]c2c1)c1ccc(Cn2cccn2)o1 | -0.23
CC(C)Oc1ccc(C(=O)N2CC(=O)Nc3ccc(F)cc3C2c2ccc(F)cc2)cc1 (stereo not drawn) | -2.3
COc1cc(C2c3c(-c4cc(C)ccc4O)n[nH]c3C(=O)N2CCCO)ccc1OCCC(C)C (stereo not drawn) | -2.5
N#Cc1ccc(CSc2nnc(-c3ccc(Br)cc3)o2)cc1 | -1.3
O=C(CCN1CCCCC1)N1CC2c3ccccc3OC[C@]2(C(=O)O)C1 (stereo partly drawn) | -1.4
CCc1ccc(Nc2nn3c(=O)c4cc5c(cc4nc3s2)OCO5)cc1 | -2.2
COc1ccc(NC(=O)CCCN2C(=O)COc3ccc(C)cc32)cc1OC | 0.06
COc1ccc(Nc2oc(/C=C/c3cccc(OC)c3)nc2C#N)cc1 | 0.07
Cc1cc(C(=O)NC2CCC(NC(=O)c3ncoc3C)C2)no1 (stereo not drawn) | 1.6
COc1ccc(OC2CCN(C(=O)C3CC3)CC2)c(C(=O)N(C)C(C)C)c1 | 0.1
Cc1cccc(N2CCN(c3c(CN4CCCC4)c(=O)oc4ccccc34)CC2)c1C | -0.62
COc1ccccc1CNC(=O)c1cn(C)c2ccc(S(=O)(=O)N3CCC(C)CC3)cc2c1=O | 0.11
Cn1c(=O)c2c(nc(CN3CCN(c4ccccc4F)CC3)n2Cc2ccccc2F)n(C)c1=O | -2.5
Cc1noc(-c2ccc(S(=O)(=O)NC3COCC3Cc3ccncc3)o2)c1C (stereo not drawn) | -0.91
Cc1cc(C)n(C2CCN(C(=O)Cc3ccc(S(C)(=O)=O)cc3)C2)n1 (stereo not drawn) | 0.28
Cc1ccc2occ(CC(=O)Nc3ccc(S(=O)(=O)N4CCCC(C)C4)cc3)c2c1 (stereo not drawn) | -1.3
N#Cc1ccccc1S(=O)(=O)N1CCCC(c2nc3c(nnn3Cc3cccc(Cl)c3)c(=O)[nH]2)C1 (stereo not drawn) | -0.59
CCCS(=O)(=O)c1ncc(Cl)c(C(=O)Nc2c(C(=O)c3ccccc3)oc3ccccc23)n1 | 1.1

Copied from the list:
Result for O=C(NCc1ccc2[nH]c(=O)[nH]c2c1)c1ccc(Cn2cccn2)o1 under fixLJ activator: -0.23
Result for N#Cc1ccc(CSc2nnc(-c3ccc(Br)cc3)o2)cc1 under fixLJ activator: -1.3

Following part:
Structure | fixLJ activator
Clc1ccc(-c2nnn3c2nc(NC2CCCCC2)c2ccccc23)cc1 | -1.8
Cc1nc2cc(C(=O)NCCS(=O)(=O)N(C)C)ccc2s1 | -0.3
COC(=O)c1ccccc1NC(=O)Cn1c(=O)n(CCCC(=O)NCc2ccccc2Cl)c(=O)c2ccccc21 | -0.49
Cn1c(=O)c(=O)n(C)c2cc(C(=O)NCc3ccccc3Cl)ccc21 | -1.1
COc1ccc(OC)c(NC(=O)Cn2cc(C(=O)c3cccs3)c3ccccc32)c1 | -0.78
CC(C(=O)O)c1cccc(Oc2ccccc2)c1 (stereo not drawn) | -1.6&-1.8
Cc1ccc(-n2c(SCC(=O)Nc3cccc(F)c3)nc3c(oc4ccccc43)c2=O)cc1C | -0.86
CC(=O)c1c(C)oc2ccc(NS(=O)(=O)c3ccc(C(C)C)cc3)cc12 | 0.79
CCOC(=O)c1cnc2c(Cl)cc(Cl)cc2c1Nc1ccccc1OC | 0.07
CCCC(=O)N1c2ccccc2-c2nnc(SC)nc2OC1c1sccc1C (stereo not drawn) | -2.5
Cc1ccc(CSc2cn(CCNC(=O)c3cccs3)c3ccccc23)cc1 | 1.9
CC(=O)c1ccc(NC(=O)c2sc3nc4c(cc3c2N)N2CCC4CC2)cc1 | -0.11
Cc1cccc(CN2CCN(C(=O)c3ccccn3)C3CS(=O)(=O)CC32)n1 (stereo not drawn) | 0
CCc1ccc(NC(=O)c2ccc(-c3ccccc3)s2)cc1 | 1.7
CN(C)CC(=O)N1CCC2(C1)CN(C(=O)c1nnc3n1CCCCC3)CCO2 (stereo not drawn) | -0.65
Cc1c(CNC(C)CCc2ccccc2)c(C(=O)O)c(C)n1Cc1ccc(F)cc1 (stereo not drawn) | -0.41
Cc1cc(NC(=O)COc2ccccc2)cc(-c2nc3ccccc3o2)c1O | -2.1
CCC(=O)N1CCc2cc(Br)cc(S(=O)(=O)N3CCN(c4cccc(Cl)c4)CC3)c21 | -2
O=C(CC1C(=O)OCCN1Cc1ccccc1)Nc1ccc(F)cc1 (stereo not drawn) | 0.21
CN(C)c1cc(-c2cccc(C(=O)NCCc3n[nH]c(=O)n3C)c2)ncn1 | -0.54

A portion from the list above:
Structure | fixLJ activator
Clc1ccc(-c2nnn3c2nc(NC2CCCCC2)c2ccccc23)cc1 | -1.8
Cc1nc2cc(C(=O)NCCS(=O)(=O)N(C)C)ccc2s1 | -0.3

(continued)
Structure | fixLJ activator
O=C(CCCn1cncn1)NCc1ccc2c(c1)CCCO2 | -1.1
COc1ccc(NC(=O)c2oc3ccccc3c2NC(=O)C23CC4CC(CC(C4)C2)C3)cc1 | 0.55
CC1(C)CC(=O)c2cc(-c3nc(-c4ccc(Cl)cc4)cs3)c(=O)[nH]c2C1 | 0.54
COc1cccc(-c2nc(CS(=O)(=O)CC(=O)NCCc3ccc(Cl)cc3)c(C)o2)c1 | -0.29
Cc1nc2n(c1C(=O)N(C)C)CCN(C(=O)Cc1cn3ccsc3n1)C2 | -1.5
CC(=O)c1c(C)oc2c(Cl)cc(NS(=O)(=O)c3cc(C)c(C)cc3C)cc12 | 0.49
Cc1ccc(C(=O)NC(C)C)cc1NC(=O)c1c(C)oc2c1C(=O)CCC2 | 1.4
Cn1c(=O)c2c(nc(NCc3ccccc3)n2Cc2ccccc2)n(C)c1=O | -2.7
COCCN1C(=O)c2oc3ccc(C)cc3c(=O)c2C12C(=O)N(C)c1ccccc12 (stereo not drawn) | -1.5
CCOc1ccc(NC(=O)NCCN2CCN(c3ccccc3F)CC2)cc1 | -0.41
Cc1ccc(OCc2nc(-c3ccc(C(=O)NCCc4ccc(S(N)(=O)=O)cc4)cc3)oc2C)cc1 | -0.76
COc1ccc(-c2nnc(C3CCN(S(=O)(=O)c4ccc(C)c(C)c4)CC3)o2)cc1 | -1.4
CN(Cc1ccccc1)S(=O)(=O)N1CC2CCC(C1)C2N (stereo not drawn) | 0.01
C=CCN(Cc1nc(-c2ccccc2)no1)Cc1nc(C)ccc1O | -1.4
CC(=O)c1c(C)nn(CC(=O)N(C)Cc2cccc(-c3nn[nH]n3)c2)c1C | -2.4
CCOc1ccc2nc(N3CCCC(C(=O)Nc4ccc(Br)c(C)c4)C3)sc2c1 (stereo not drawn) | -1.6
CCCCN(CCCC)C(=O)c1cc2c(=O)n3ccccc3nc2s1 | -2.2
CC(C)(C)c1ccc(C(=O)N2CCC(c3nc(-c4ccc(S(=O)(=O)N5CCCC5)cc4)no3)CC2)cc1 | -2
CCOc1ccc(CCNC(=O)c2cc3c(-c4cccc(OC)c4)nn(C)c3s2)cc1OCC | 0.35
Cc1cccc(CN2C(=O)c3ccccc3S(=O)(=O)c3ccc(C(=O)N(C)Cc4ccccc4)cc32)c1 | 0.48
Cc1nn(-c2cccc(C(=O)N3CCC4CNCC43)c2)c(=O)c2ccccc12 (stereo not drawn) | 0.28
CC(C)(C)c1ccc(S(=O)(=O)Nc2ccc(O)c(Sc3nc4ccccc4s3)c2)cc1 | -2.1
Cc1ccc(-n2c(SCc3nc(-c4ccccc4C)no3)nnc2-c2ccncc2)cc1C | 1.5
Cc1cc(C)cc(NC(=O)CCc2c(C)nc3nc(CNC(=O)c4cccc(F)c4)nn3c2C)c1 | -1.4
CC(C)CC(NC(=O)N1CCC(Cn2ccnc2)CC1)c1cccnc1 (stereo not drawn) | 0.09
COc1ccc(/C=C\c2onc(C)c2S(=O)(=O)N2CCC(C(=O)Nc3cccc(Cl)c3)CC2)cc1 | -2.2
Cc1cc(CC2CN(Cc3ccc(OC(F)(F)F)cc3)CC2O)on1 (stereo not drawn) | -2.9
COc1cc(Cn2c(=O)oc3ccc(C)cc32)ccc1OCCC(C)C | 0.5
COCc1ncc(CN2CC3c4ccccc4OC[C@]3(C(=O)O)C2)cn1 (stereo partly drawn) | 0.11
Cc1ccc(-c2noc(CSc3nnc(C)n3-c3ccc(F)cc3)n2)cc1 | -0.03
CCn1c(=O)c2cc(C(=O)NCCCOC)sc2c2ccccc21 | -1.5
COc1ccc(-n2nc(C(=O)NCc3ccc(F)cc3Cl)c3c4ccccc4n(C)c3c2=O)cc1Cl | -0.47
COc1ccc(CNC(=O)c2nc(Cn3nc(C)c(Br)c3C)no2)cc1OC | -1.4
Cn1c(-c2cc3n(n2)CCCN(C(=O)CCCCCN)C3)nc2ccccc21 | -0.25
Cc1ccccc1-c1noc(CCC(=O)Nc2cccc(C)c2C)n1 | -0.1
Cc1cc(/C=C(\C#N)C(=O)Nc2ccccc2)c(C)n1-c1ccc(F)cc1 | -1.8
Cc1ccc(OCC2CCCN(C(=O)c3ccc4c(c3)nc(N3CCOCC3)n4C)C2)cc1 (stereo not drawn) | -1.2
CC(=O)N1CCCCC1C(=O)NCCSc1nccn1C (stereo not drawn) | -0.26
CCOc1ccc(CN2CCN(c3ncnc4sc5c(c34)CC(C)CC5)CC2)cc1 (stereo not drawn) | -0.37
CN(C(=O)c1ccc2c(c1)N(Cc1ccccc1F)C(=O)c1ccccc1S2(=O)=O)C1CCCCC1 | 1.7

Grouped by structure, those above with a COOH group.
Structure | fixLJ activator
O=C(CCN1CCCCC1)N1CC2c3ccccc3OC[C@]2(C(=O)O)C1 (stereo partly drawn) | -1.4
CC(C(=O)O)c1cccc(Oc2ccccc2)c1 (stereo not drawn) | -1.6&-1.8
Cc1c(CNC(C)CCc2ccccc2)c(C(=O)O)c(C)n1Cc1ccc(F)cc1 (stereo not drawn) | -0.41
COCc1ncc(CN2CC3c4ccccc4OC[C@]3(C(=O)O)C2)cn1 (stereo partly drawn) | 0.11

(continued)
Structure | fixLJ activator
CCCOc1ccc(-c2nonc2NC(=O)c2oc3ccc(Cl)cc3c2C)cc1OCCC | -1.4
COc1ccc(Cl)cc1NC(=O)Cn1ncc2c3ccccc3n(C)c2c1=O | 1.5
CCOC(=O)c1ccc(NC(=O)C2CC(=O)N(c3ccc(C(C)C)cc3)C2)cc1 (stereo not drawn) | 0.7
COc1cccc(Cn2nnc3c(=O)[nH]c(C4CCCN(C(=O)c5ccc(C)cc5)C4)nc32)c1 (stereo not drawn) | 1.8
CN1CCc2cccc3c2[C@H]1Cc1ccc(O)c(O)c1-3 | -2.2
CCOC(=O)c1nnn(CC(=O)NC(=O)Nc2ccc(F)cc2)c1C(=O)OCC | 3.5
CCCN(C(=O)Cn1c(=O)oc2cc(Cl)ccc21)c1ccc(C(C)C)cc1 | -0.02
CCOc1ccc2c(c1)c(=O)c(S(=O)(=O)c1ccc(C)cc1)cn2Cc1ccccc1Cl | 0.72
CCN1C(C(=O)c2ccccc2)=C(OC(=O)COc2ccc(OC)cc2)c2ccccc2S1(=O)=O | -1.2
CCOc1ccc(NC(=O)Cn2c(=O)n(CCc3ccccc3)c(=O)c3c4c(sc32)CN(C(C)=O)CC4)cc1 | -1.7
COc1ccc(-c2oc3ncn4nc(-c5cccc(C)c5)nc4c3c2-c2ccc(OC)cc2)cc1 | -0.14
CC(=O)O[C@H]1C(=O)[C@@]2(C)[C@H]([C@H](OC(=O)c3ccccc3)[C@]3(O)C[C@H](OC(=O)[C@H](O)[C@@H](NC(=O)c4ccccc4)c4ccccc4)C(C)=C1C3(C)C)[C@]1(OC(C)=O)CO[C@@H]1C[C@@H]2O | -2.1
Cc1cccc(-c2nc3cc(NC(=O)c4ccc(OCC(C)C)cc4)ccc3o2)c1 | 0.17
Cc1nc(N2C(=O)c3oc4ccccc4c(=O)c3C2c2ccccc2F)sc1C (stereo not drawn) | -0.57
O=C(CCCN1CCN(c2ccccn2)CC1)c1ccc(F)cc1 | -1.4&-1.2
CCCN1C(=O)c2[nH]nc(-c3ccccc3O)c2C1c1ccc(OCc2ccccc2)c(OC)c1 (stereo not drawn) | -0.42
CCOc1ccc(C2CC(=O)n3nc(-c4ccc(C)cc4)nc3S2)cc1OC (stereo not drawn) | 1.1
CCCCC1C(=O)N(C)CCN1C(=O)NCc1cccc(Cl)c1 (stereo not drawn) | 0.53
O=C(c1cc(-c2ccc(Cl)cc2)n[nH]1)N1CCC[C@@]2(CCCC2O)C1 (stereo partly drawn) | -2.2
CC(CCc1ccccc1)NC(=O)Cn1ncc2c3ccccc3n(Cc3ccc(F)cc3)c2c1=O (stereo not drawn) | -1.2
CCc1ccc2oc(C(=O)NCC(c3ccc(OC)cc3)N3CCCCC3)c(C)c2c1 (stereo not drawn) | -1.8
Cc1ccc(Cn2c(C(=O)Nc3cccc(Cl)c3)cc3sccc32)cc1 | 0.19
CCOc1ccc(NC(=O)CN(c2ccc(Cl)cc2C)S(=O)(=O)c2ccccc2)cc1 | -0.31
CCC(NC(=O)CCC(=O)NC1CCCCCCC1)c1ccncc1 (stereo not drawn) | -0.45
COc1ccc(C(=O)NCCn2cc(SCC(=O)Nc3ccc(F)cc3)c3ccccc32)cc1 | 0.25
Cc1ccc(NC(=O)c2cn3cccc(C)c3n2)cc1NC(=O)CN(C)C | -0.02
CCOC(=O)c1c(NC(=O)c2cc(OCC)c(OCC)c(OCC)c2)sc2c1CCCCC2 | -0.57
COc1cccc(NC(=O)Cn2cc(C(=O)c3ccc(F)cc3)c(=O)c3cc(OC)ccc32)c1 | 0.74
